# From PubChem BioAssay
# Hsc70 ATP site = Hsc70 inhibitors, probe displacement, primary screen, biochemical, fluorescence polarization (AID 568). Hsc70 fluorescence polarization, probe displacement; higher % means a stronger effect; strong numbers were not always called active. 83,000 tested, under 10 active. displacement, % at 20 µM; hits with a dose series show IC50 in µM;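 active means displacement above 50% without optical interference and an IC50 on retest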;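 further: ATPase domain with a fluorescein-tagged ATP probe; 0% = vehicle and 100% = excess ADP; read after one hour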
# WNV protease inh = inhibitors of West Nile virus NS2B-NS3 protease; P06935; WNV NS2B-NS3 protease, fluorogenic substrate Ex360/Em465; stronger effect = lower value; z-score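 (tested at a level between 10 and 100 µM)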; 65,000 compounds, 0.18% hits; AID 577;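 active means z-score at -3 or under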;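 further: score is relative to mean and spread of the compound wells of a plate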
# Target sequence (P06935 1371-1501 limits assumed): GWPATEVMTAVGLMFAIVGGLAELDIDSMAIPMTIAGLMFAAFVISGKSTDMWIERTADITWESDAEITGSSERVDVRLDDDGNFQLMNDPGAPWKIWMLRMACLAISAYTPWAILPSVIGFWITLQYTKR
# Target sequence (P06935 1502-1679 limits assumed): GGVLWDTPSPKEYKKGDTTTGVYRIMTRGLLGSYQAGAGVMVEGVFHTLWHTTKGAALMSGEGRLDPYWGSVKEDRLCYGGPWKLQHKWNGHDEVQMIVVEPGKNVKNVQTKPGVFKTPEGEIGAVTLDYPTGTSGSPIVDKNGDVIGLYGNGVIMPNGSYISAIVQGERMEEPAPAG
# MT1-MMP promoter = inhibitors of MT1-MMP promoter transcription, cell-based, luciferase reporter, luminescence (AID 618); MT1-MMP promoter luciferase reporter cells, luminescence; calls from a first round at 10 µM; hits with a dose series show EC50 in µM; 87,000 compounds, 0.62% hits;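 active means over half of the reporter light lost at 10 µM or EC50 under 50 µM; inactive means the rest and hits that failed the dose series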;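 further: actives suppress MT1-MMP promoter-driven transcription so potencies describe inhibitors; HT1080 fibrosarcoma cells; overnight exposure; toxic or luciferase-blocking compounds were not removed from the actives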
# The depositor's hits bear a star; i = inactive; x = not tested or not shown.
# The opening three compounds, to show the layout:
# Second line of a record: Hsc70 ATP site	WNV protease inh	MT1-MMP promoter
CC(C)Cc1cc(C(=O)NCCc2ccccc2)no1
  10.6%	0.74	i
CN(C)S(=O)(=O)c1ccc(NC(=O)c2ccc(Br)o2)cc1
  -3.8%	x	i
COC(=O)c1ccc(NC(=O)CCN2CCN(CCC(=O)Nc3ccc(C(=O)OC)cc3)CC2)cc1
  2.6%	x	i

# The list itself, from the first entry:
# Second line of a record: Hsc70 ATP site	WNV protease inh	MT1-MMP promoter
CC(C)Cc1cc(C(=O)NCCc2ccccc2)no1
  10.6%	0.74	i
CN(C)S(=O)(=O)c1ccc(NC(=O)c2ccc(Br)o2)cc1
  -3.8%	x	i
COC(=O)c1ccc(NC(=O)CCN2CCN(CCC(=O)Nc3ccc(C(=O)OC)cc3)CC2)cc1
  2.6%	x	i
CCOC(=O)c1cc2n(c1/N=C/N(C)C)-c1ccccc1C2=O
  78.1%	x	i
CC1CN(C(=O)c2cc3c(s2)CCC3)CC(C)O1 (stereo unspecified)
  2.2%	-1.7	i
CCN(CC)S(=O)(=O)c1ccc(NC(=O)C2CCCO2)cc1 (stereo unspecified)
  6.9%	x	i
COc1ccccc1N1CCN(C(=O)c2oc3ccccc3c2C)CC1
  -3.7%	-0.32	i
O=C(Cc1coc(-c2ccc(F)cc2)n1)NCc1ccccc1
  4.1%	0.82	i
CCc1nn(CC(=O)NCCN2CCN(C)CC2)c(=O)c2cc3occc3n12
  4.0%	1.14	i
O=S(=O)(c1ccc(N2CCCC2)cc1)C(F)(F)F
  -8.3%	0.06	i
O=C(CN1CCC(n2nnc3cc(C(F)(F)F)ccc32)CC1)N1CCc2ccccc21
  4.2%	0.43	i
O=C(Cn1nc(-c2ccccc2)ccc1=O)NCC1COCCO1 (stereo unspecified)
  1.7%	-0.64	i
Cn1c(CN2CCOCC2)nnc1SCC(=O)Nc1ccc2c(c1)OCCO2
  6.8%	-0.33	i
COc1cc(-c2nc3cnccn3c2Nc2ccc(C(C)C)cc2)ccc1O
  4.5%	x	i
O=C(CN(CCCN1CCOCC1)C(=O)Cn1nnc(-c2ccc(F)cc2)n1)NC1CCCCC1
  0.9%	-1.52	i
O=C1CN(C(=O)CSc2nnnn2-c2ccc(Cl)cc2)c2ccccc2N1
  -2.9%	-0.51	i
C=CCn1c(SCC(=O)Nc2ccc3c(c2)OCCO3)nnc1-c1ccco1
  2.0%	-0.34	i
CCN(c1cccc(C)c1)S(=O)(=O)c1cnc[nH]1
  6.2%	x	i
CC1CCCN(C(=O)CNC(=O)Cn2ccc3ccccc3c2=O)C1 (stereo unspecified)
  1.6%	1.32	i
CCNC(=O)CSc1nc2ccccc2c(=O)n1-c1cc(OC)ccc1OC
  4.6%	x	i
CCOCCCNC(=O)c1cc2sc(Cl)cc2n1CC
  -3.3%	-0.17	i
O=S1(=O)C=CC(Nc2ccccc2)C1 (stereo unspecified)
  -0.2%	x	i
CCOC(=O)CSc1n[nH]c(-c2cccnc2)n1
  1.8%	1.1	i
O=C(C1CC1)N1CCc2cc(Br)cc(S(=O)(=O)NCc3ccco3)c21
  -0.9%	-0.11	i
CCn1c(SCC(=O)N2CCCc3ccccc32)nnc1-c1ccoc1C
  2.7%	x	i
COc1cccc(N(CC(=O)N2CCN(C)CC2)S(=O)(=O)c2ccccc2)c1
  -0.4%	-0.1	i
O=C(O)CCNS(=O)(=O)c1ccccc1
  6.5%	1.13	i
Cc1ccc(S(=O)(=O)N2CCN(C(=O)CN3CCOCC3)C2)cc1
  5.1%	-0.46	i
Cc1ccc(-c2nnc(N3CCN(C(=O)CN4CCOCC4)CC3)c3ccccc23)cc1
  -1.7%	-2.17	i
Cc1ccccc1S(=O)(=O)Cc1ccc(C(=O)N2CCN(c3ncccn3)CC2)o1
  -3.5%	1.07	i
CCOC(=O)c1ccc(COC(=O)c2ccc(-c3nnc(-c4ccccc4)o3)cc2)o1
  -1.3%	0.97	i
CC(C)C(=O)Nc1c2c(nc3ccccc13)N(C)CC2
  -2.6%	-0.8	i
O=C(Nc1cnn(Cc2ccc(F)cc2)c1)c1cc2nc(-c3ccco3)cc(C(F)(F)F)n2n1
  2.0%	-0.77	i
CCCP(=O)(CC(=O)O)c1ccccc1 (stereo unspecified)
  -1.6%	-0.5	i
C=CCn1c(COc2cccc3cccnc23)nnc1SCC(=O)OC
  4.8%	-1.04	i
O=C(Cn1c(CC(=O)N2CCOCC2)nc2ccccc21)Nc1ccc2c(c1)OC(F)(F)O2
  5.0%	-0.54	i
N#Cc1c(NCc2ccccc2)ccnc1NCc1cccnc1
  -3.1%	0.15	i
O=[N+]([O-])c1ccc(Cl)c(/C=N/N2CCN(Cc3ccccc3)CC2)c1
  -3.1%	x	i
COc1cc(-c2[nH]nc3c2C(c2ccoc2)C(C#N)=C(N)O3)cc(OC)c1OC (stereo unspecified)
  -2.5%	x	i
O=C(NCC(=O)N1CCCC1)c1cccs1
  -0.5%	0.74	i
O=C(CSc1nnc(Cc2ccccc2)n1-c1ccc(F)cc1)N1CCOCC1
  -0.3%	0.38	i
CCOCCCNC(=O)c1c[nH]c2ccc(C)cc2c1=O
  -1.8%	x	i
CN(c1ccc(C(=O)NCC2CCCO2)cc1)S(=O)(=O)c1ccccc1 (stereo unspecified)
  -5.3%	-0.55	i
CCC(c1nnnn1Cc1ccc(OC)cc1)N(CCCO)Cc1cc2cc3c(cc2[nH]c1=O)OCO3 (stereo unspecified)
  2.7%	x	i
O=C(CCNC(=O)Cn1ccc2ccccc2c1=O)NCCCN1CCN(c2ccc(F)cc2)CC1
  7.8%	-0.98	i
CC(C)OC(=O)COc1ccc(-c2ccccc2)cc1
  -2.3%	x	i
COc1ccccc1CNC(=O)N[C@@H](Cc1ccccc1)C(=O)O
  1.7%	-0.01	i
FC(F)(F)c1nnc2sc(-c3ccco3)nn12
  -3.3%	-1.3	i
OCCNCCCCOc1ccccc1F
  0.4%	1.03	i
O=C(CCn1c(=O)sc2ccccc21)Nc1ccon1
  6.1%	0.52	i
O=C(c1cc2nc(-c3ccco3)cc(C(F)(F)F)n2n1)N1CCN(c2ccccn2)CC1
  7.9%	0.58	i
COc1ccc2c(c1)C(=O)N(c1ccc(C)cc1)C(=O)C2
  3.7%	x	i
CC1=C(C(=O)Nc2ccccc2)C(c2cccs2)C(C#N)=C(SCC#N)N1 (stereo unspecified)
  -10.8%	-0.36	i
CC(Sc1nnc(-c2cccs2)n1-c1ccccc1)C(=O)NCc1ccco1 (stereo unspecified)
  4.5%	x	i
O=C(NCCOCCOCCNC(=O)c1cccnc1)c1cccnc1
  0.4%	-0.11	i
CC(C)(C)NS(=O)(=O)c1ccc(CCC(=O)NCc2cccnc2)cc1
  -0.9%	x	i
Cc1nn(C)c(C)c1NC(=O)c1ccnn1C
  -1.6%	-0.23	i
CCc1nnc2sc(-c3ccc(NC(=O)c4ccc5c(c4)OCCO5)cc3)nn12
  -6.7%	-0.73	i
CCCCn1nc(C(=O)O)ccc1=O
  2.5%	-1.53	i
COc1ccc(N(CC(=O)O)S(C)(=O)=O)cc1OC
  6.1%	0.12	i

# Going on with the list:
# Second line of a record: Hsc70 ATP site	WNV protease inh	MT1-MMP promoter
O=C(Nc1ccc(Cl)cc1)c1cc2nc(-c3ccco3)cc(C(F)(F)F)n2n1
  -9.2%	-0.54	i
Cc1nnc(SCC(=O)Nc2nsc(-c3ccccc3)n2)s1
  0.2%	-0.58	i
COC(=O)C(c1cc(OC)c(O)c(OC)c1)(N1CCNC(C)C1)C(F)(F)F (stereo unspecified)
  -6.0%	-0.82	i
O=c1[nH]cnc2c1N1CCC2CC1
  -0.1%	-1.18	i
Cc1ccc(C)c(NC(=O)Cn2nc(C)c3ccccc3c2=O)c1
  5.4%	0.5	i
Cc1nc(SCC(=O)c2ccc(F)cc2)n[nH]1
  -0.5%	-0.69	i
CCCOc1cccc(C2/C(=C(/O)c3ccc(OC)cc3)C(=O)C(=O)N2CCN(C)C)c1 (stereo unspecified)
  -4.5%	0.99	i
Cc1ccc(S(=O)(=O)NCC(=O)N2CCCCC2)cc1
  4.4%	-0.53	i
O=C(O)CNC(=O)CC12CC3CC(CC(C3)C1)C2
  -3.1%	0.35	i
Cc1cccc(C)c1OCC(=O)NCc1nnc(SCC(=O)NC2CCCCC2)n1C
  -1.4%	-0.51	i
CC(=O)c1c(OC(=O)c2ccco2)c2ccccc2n1C
  0.4%	-0.33	i
CCc1ccc(C(=O)CN(C#N)c2nc(C)cc(C)n2)cc1
  3.2%	x	i
CCCS(=O)(=O)N1CCN(C(=O)c2cccs2)CC1
  8.2%	-0.46	i
CCN(C(=O)CSc1ncn[nH]1)C1CCCCC1
  0.5%	x	i
O=C(Cn1nnc(-c2cccc(C(F)(F)F)c2)n1)N1CCOCC1
  5.1%	-0.89	i
O=C(CCCc1nc(-c2ccccc2Cl)no1)NC1CCCCC1
  -7.7%	-0.82	i
CC(C)n1c(SC2CCOC2=O)nc2ccccc21 (stereo unspecified)
  1.0%	1.62	i
CCc1nc(OCc2ccco2)c2sc3nc4c(cc3c2n1)COC(C)(C)C4
  -0.9%	-0.92	i
CCOC(=O)c1c(C2CCN(C(=O)OCC)CC2)nc2ccccn12
  5.6%	-0.46	i
O=C(NC1CCCCCCC1)C1CCN(c2nc3ccccc3o2)CC1
  0.6%	-1.09	i
COc1ccc(NC(=O)NCCCN2CCCC2=O)cc1
  7.7%	2	i
Cn1cc(C(=O)N2CCN(C(=O)c3ccco3)CC2)c2c3ccccc3n(C)c2c1=O
  -8.8%	-0.49	i
COc1ccc(C)cc1NC(=O)C1CCCCC1C(=O)O (stereo unspecified)
  -3.0%	-0.8	i
CCn1c(SCC(=O)Nc2cc(C)on2)nnc1-c1ccncc1
  -3.9%	0.14	i
O=C(CN(C(=O)CCC(=O)Nc1ccccn1)c1ccc2c(c1)OCO2)NCc1ccco1
  -0.8%	-0.47	i
Cn1c(=O)c2cc(S(=O)(=O)NCCC(=O)Nc3ccc(Cl)cc3)ccc2n(C)c1=O
  -5.6%	0.22	i
Nc1ccc(C(=O)Nc2ccc3nc(-c4cccnc4)[nH]c3c2)cc1
  1.1%	x	i
Cc1ccc(S(=O)(=O)N2CCCSCC2)cc1
  2.0%	-0.000895	i
COC(=O)CSc1nnc(-c2ccc(S(=O)(=O)NCc3cccs3)cc2)o1
  -3.6%	0.97	i
Cc1cccn2c(=O)c(/C=C(\C#N)S(=O)(=O)c3ccccc3)c(N3CCN(C)CC3)nc12
  6.3%	-0.66	i
O=C(NCc1ccccc1)C1(c2ccccc2)CCN(S(=O)(=O)c2ccccc2)CC1
  2.4%	x	i
COc1ccc(Cn2nnnc2CN2CCc3ccccc32)cc1
  3.1%	1.38	i
C=CCN(c1ccc(C(=O)N2CCN(c3ccc(F)cc3)CC2)cc1)S(C)(=O)=O
  0.9%	-1.3	i
COc1cc(-c2c(C#N)c(=O)[nH]c3c2c(C)nn3-c2ccccc2)ccc1O
  -2.7%	-0.45	i
COc1ccc(C2NC(=O)c3n[nH]c(C)c32)c(OC)c1 (stereo unspecified)
  3.1%	0.46	i
CC1CCC2(CC1)NC(=O)N(CC(=O)c1cccn1C)C2=O (stereo unspecified)
  5.5%	x	i
CC12CCC(C(=O)Nc3nccs3)(OC1=O)C2(C)C (stereo unspecified)
  1.3%	x	i
Cc1sc2ncnc(N3CCN(c4ncccn4)CC3)c2c1C
  45.8%	0.01	i
CS(=O)(=O)N(CC(=O)Nc1ccc2c(c1)OCO2)c1ccc(Cl)cc1
  1.5%	1.12	i
O=C(Nc1ccc2c(c1)OCCO2)c1cnc2n(c1=O)CCS2
  0.7%	0.6	i
CC1(C)CC(=O)C2=C(C1)N1CCCCC1CC2=O (stereo unspecified)
  2.5%	0.7	i
COC(=O)c1nnn(CC(=O)Nc2ccc(C)c(F)c2)c1C(=O)OC
  2.2%	0.45	i
O=C(O)C1CCCCN1S(=O)(=O)c1ccc(Cl)s1 (stereo unspecified)
  5.4%	-0.09	i
Cc1ccc(C(=O)CSc2nnc(-c3ccco3)n2Cc2ccccc2)cc1
  5.2%	0.74	i
O=C1c2ccccc2C(=O)N1CCN1CCCCC1
  -0.1%	0.42	i
Cc1cc(=O)cc(C)[nH]1
  4.4%	0.2	i
CCc1nnc(NC(=O)CSc2nc3cccnc3n2Cc2ccccc2)s1
  0.5%	x	i
CN(C)c1ccc(NC(=O)CCCc2ccccc2)cc1
  -1.8%	-0.92	i
Cc1ccc2nsnc2c1S(=O)(=O)N(Cc1ccco1)Cc1cc2cccc(C)c2[nH]c1=O
  -4.2%	-1.06	i
CC(=O)Nc1ccc(N2CCN(C(=O)c3cccs3)CC2)cc1
  -1.2%	-1.98	i
CCN(CC(=O)Nc1ccc2c(c1)OCCO2)Cc1cc(=O)oc2c(C)c(C)ccc12
  1.5%	-1.02	i
O=C(NCC(O)c1ccccc1)c1cccc(S(=O)(=O)N2CCOCC2)c1 (stereo unspecified)
  -5.0%	-0.64	i

# Another view of part of the listing above:
smiles | Hsc70 ATP site | WNV protease inh | MT1-MMP promoter
CN(C)c1ccc(NC(=O)CCCc2ccccc2)cc1 | -1.8% | -0.92 | i
CCc1nnc(NC(=O)CSc2nc3cccnc3n2Cc2ccccc2)s1 | 0.5% | x | i

# Outcome played no part in choosing rows; 0.77% or so of the library scored in one or more.
